# VDR inhibitor: vitamin D3 receptor (human) inhibition; VDR-SRC2-3 peptide fluorescence polarization, 2 h; Potency, µM, inactives show max response, negative = inhibition, usual class: inhibitors; actives 0.93% (n = 400,000); AID 504847; active means well fitted inhibition curve with a large enough effect; inconclusive means small, poorly fitted or top-dose-only effect, or another doubt; inactive means no such curve, though single readings can be large or run the other way; further: series mostly up to about 120 µM
# Target sequence (P11473 whole entry, looked up): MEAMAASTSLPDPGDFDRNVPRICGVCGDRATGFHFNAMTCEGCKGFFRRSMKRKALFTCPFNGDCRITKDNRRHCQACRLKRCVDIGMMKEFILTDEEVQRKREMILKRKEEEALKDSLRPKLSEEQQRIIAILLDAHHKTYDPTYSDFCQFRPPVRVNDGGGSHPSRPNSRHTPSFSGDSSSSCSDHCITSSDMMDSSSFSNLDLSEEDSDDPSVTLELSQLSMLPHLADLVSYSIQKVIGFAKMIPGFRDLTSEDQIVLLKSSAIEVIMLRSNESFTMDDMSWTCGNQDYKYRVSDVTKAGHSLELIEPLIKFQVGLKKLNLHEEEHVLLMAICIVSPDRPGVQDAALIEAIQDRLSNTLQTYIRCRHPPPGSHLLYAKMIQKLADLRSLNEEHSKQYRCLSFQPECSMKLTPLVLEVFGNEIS
#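 Compounds are added to VDR with labelled SRC2-3 coactivator peptide and held 2 h at room temperature. Inhibition of the VDR–peptide interaction is then read as a change in fluorescence polarization.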
# * marks the source's active call; other numbers are inactive results; ? = inconclusive; & = joins results of further samples; ! = repeats disagree; [ ] = remark or other dose. On the % scale 0 is the no-effect control and ±100 the full control effect; potency means the concentration at half of the fitted maximal effect. These rows are one share of the data; rates above refer to the full screens.
# Start of the listing, in advance (four entries):
Structure	VDR inhibitor
COc1cc(C(=O)N2CCN(c3ccc(Nc4ccc(C)cc4)nn3)CC2)cc(OC)c1OC	13.1%
O=C(CSCc1ccccc1)NCc1ccc2c(c1)OCO2	10.7%
CCOc1cc(C2NC(=O)N(C)C(C)=C2[N+](=O)[O-])ccc1OC(C)=O (stereo not drawn)	-12.8%
CN(C)S(=O)(=O)c1ccc(NC(=O)c2ccc3ncsc3c2)cc1	-14.8%

# Main list, from the first entry:
Structure	VDR inhibitor
COc1cc(C(=O)N2CCN(c3ccc(Nc4ccc(C)cc4)nn3)CC2)cc(OC)c1OC	13.1%
O=C(CSCc1ccccc1)NCc1ccc2c(c1)OCO2	10.7%
CCOc1cc(C2NC(=O)N(C)C(C)=C2[N+](=O)[O-])ccc1OC(C)=O (stereo not drawn)	-12.8%
CN(C)S(=O)(=O)c1ccc(NC(=O)c2ccc3ncsc3c2)cc1	-14.8%
Cc1cc(C)n2nc(C(=O)OCCOc3cccc(Br)c3)nc2n1	-1.1%
CCCC1=C/C(=C/c2ccc(-c3ccccc3OC)o2)C(=O)O1	-12.8%
C=CCNC(=O)c1c(N)n(-c2cccc(S(N)(=O)=O)c2)c2nc3ccccc3nc12	-6.4%
COc1cccc(N2CC(C(=O)Nc3ccc(F)cc3)CC2=O)c1 (stereo not drawn)	37.4%[activator]
Cc1ccc2nc(SCC(=O)Nc3cccc(S(=O)(=O)NC4=NCCCCC4)c3)[nH]c2c1	-3.2%
COc1ccc(-c2cc(C(=O)O)[nH]n2)cc1OC	-24.3%
O=C(CC1C[C@H](C(=O)N2CCCCC2)[C@@]2(CCc3ccccc3)c3[nH]c4ccccc4c3CCN2C1=O)NCCC1=CCCCC1 (stereo partly drawn)	-7.5%
Cn1nc(-c2ccccc2F)c2cc(C(=O)Nc3ccc4c(c3)OCCO4)sc21	9.4%
COc1ccc(S(=O)(=O)N2CCCCCC2)cc1NC(=O)Cc1n[nH]c(=O)c2ccccc12	-0.9%
O=c1cc(C2CCCCC2)[nH]c(=O)[nH]1	-6.1%
Cc1ccc(CNC(=O)CCc2cn(C)c3ccccc23)cc1	1.2%&7.1%

Structure	VDR inhibitor
COc1ccc(S(=O)(=O)N2CCN(CC(=O)Nc3cc(OC)cc(OC)c3)CC2)cc1	-2.8%
COc1ccc(C(=O)C2CCCN(C(=O)C3=CCCC3)C2)cc1OC (stereo not drawn)	-5.2%
CCc1oc2ccccc2c1C(=O)c1cc(Br)c(O)c(Br)c1	50.1µM*!
CCN1CCN(c2cc(C)c3cc(NC(=O)c4cccc(OC)c4)ccc3n2)CC1	10.3%
C=CCSSSCC=C	25.1µM*
CC1=C(C(=O)Nc2ccccc2C(=O)NC2CCC(C)CC2)SCCO1 (stereo not drawn)	14.7%
O=[N+]([O-])c1ccc(OCCCCN2CCCCC2)cc1	-0.9%
COc1ccc(N2CCN(C(CNC(=O)C(=O)NCCC3=CCCCC3)c3ccco3)CC2)cc1 (stereo not drawn)	4.0%
Cn1c(SCC(=O)NC2CCCC2)nnc1-c1ccco1	7.1%
C=CCn1c(SCC(=O)N(CCC)C2CCS(=O)(=O)C2)nnc1-c1ccccc1OC (stereo not drawn)	-16.6%
CCCCCCSc1cc(-c2nc3cc(C)ccn3c2NC2CCCCC2)ccc1OC	-22.5%
CCN(CC)C(=O)CSc1nc(N)c(-c2ccccc2)c(=O)[nH]1	-5.1%
COc1cccc(OCC(O)CN2CCC(C)CC2)c1 (stereo not drawn)	7.5%
O=[N+]([O-])c1ccccc1Oc1ccc(Cl)c2cccnc12	-10.1%
O=S(=O)(Nc1ncccn1)c1ccc(NC(=S)NCc2ccco2)cc1	-11.6%

Structure	VDR inhibitor
COC(=O)c1[nH]c2ccc(C)cc2c1NC(=O)CCN1CCN(Cc2ccc3c(c2)OCO3)CC1	9.1%
COc1cccc([C@@H]2Oc3ccc(OC)cc3C[C@H]2OC(=O)Nc2cc(OC)c(OC)c(OC)c2)c1	-0.6%
COc1ccc(CC(=O)NC(C)C2COc3ccccc3O2)cc1OC (stereo not drawn)	-16.4%
Cc1cc(OCc2nc3ccccc3s2)ccc1N	?
C[C@@H]1O[C@@H](OC[C@H]2O[C@@H](Oc3c(-c4cccc(O)c4O)oc4cc(O)cc(O)c4c3=O)[C@H](O)[C@@H](O)[C@@H]2O)[C@H](O)[C@H](O)[C@H]1O	2.3%
CN(C)C(=O)c1cn(CCC#N)nc1-c1ccc2ccccc2c1	-8.4%
Cn1nnnc1SCCCNCc1cccc(OCc2ccc(Cl)cc2)c1	8.4%
CCOC(=O)N1CCc2c(sc(NCc3cccc(F)c3)c2C(=O)Nc2ccc(OCC)cc2)C1	-25.2%
CN(C)c1cccc(Oc2nc3c(c(=O)n(C)c(=O)n3C)n2C)c1	-4.6%
NC(=O)c1cc([N+](=O)[O-])ccc1NCc1cccc([N+](=O)[O-])c1	5.4%
C/C(=N\NC(=O)C(N)=O)c1ccc(O)cc1O	-18.2%
Cn1nnnc1SCCCNCc1ccc(-c2ccc(Br)cc2)o1	-7.5%
Cc1ccc(Cl)cc1N1CCN(C(=O)CSc2ccsc2[N+](=O)[O-])CC1	-8.3%
COc1ccc(Cl)cc1NC(=O)CN(C)C(C)C(=O)NCC1CCCCC1 (stereo not drawn)	-10.2%
Cc1ccc(-n2c(SCC(=O)NNC(=S)Nc3ccccc3)nc3ccccc3c2=O)cc1	-13.5%

Structure	VDR inhibitor
CCOc1ccccc1NC(=O)CN1CCN(C(=O)C2CCCO2)CC1 (stereo not drawn)	8.5%
COc1ccccc1CNC(=O)C(=O)NCC1OCCN1C(=O)c1cccs1 (stereo not drawn)	-20.7%
COc1ccc(S(=O)(=O)N2CCCCC2)cc1NC(=O)C1COc2ccccc2O1 (stereo not drawn)	-11.4%
Cc1nc(CN2CCCCC2)cc(=O)[nH]1	36.5%[activator]
CN(C)CCN1C(=O)c2oc3ccc(Cl)cc3c(=O)c2C1c1cccc(Br)c1 (stereo not drawn)	16.9%
COc1cc(C)ccc1OCCOc1c(C)cccc1Cl	-0.7%
COc1ccccc1C(CNC(=O)c1ccc(OCc2c(C)noc2C)cc1)N1CCCC1 (stereo not drawn)	-19.1%
CC(=O)N1CCc2c(sc(NC(=O)CCS(=O)(=O)c3ccc(C)cc3)c2C(N)=O)C1	5.6%
Cc1cc(C)c(NC(=S)NCC2CCN(C(C)c3ccccc3)C2)c(C)c1 (stereo not drawn)	44.7µM*
O=C(CSc1nnc(-c2ccccn2)o1)Nc1cccc(Cl)c1	0.9%
O=C(NCCc1ccccc1)/C(=C\c1ccc([N+](=O)[O-])cc1)NC(=O)c1ccco1	3.7%
O=C1OCCN/C1=C\C(=O)c1ccc(Cl)cc1	-0.3%
CCn1ccnc1CNC(=O)c1cc(COc2ccc(F)cc2F)on1	-12.4%
CCOc1c(O)ccc(C2NC(=O)NC(C)=C2C(=O)OC)c1[N+](=O)[O-] (stereo not drawn)	4.7%
CCn1c(SCC(=O)NNC(=O)c2ccc(OC)cc2)nnc1C1CC1	4.0%

Structure	VDR inhibitor
COc1ccc(NC(=O)N2CC[C@@]3(CCCN(C(=O)c4c(C)noc4C)C3)C2)cc1	-0.5%
Cc1ccc(Cl)cc1NC(=O)Cn1c(=O)n(Cc2ccccc2)c(=O)c2oc3ccccc3c21	3.7%
Cc1ccc(C(=O)COC(=O)CNC(=O)c2cccs2)cc1C	-0.5%
COC(=O)c1sc(NC(=S)NC(=O)c2cccc(C)c2)nc1C	-15.7%
COc1ccccc1N1CCN(C(=O)CCC(=O)N2CCN(c3ccc(F)cc3)CC2)CC1	15.6%
COc1cc(C)ccc1OCc1cc(C(=O)N2C[C@H]3CC[C@H]2C3)no1	6.8%
Cn1cc(CN2CCN(Cc3ccc4c(c3)OCO4)CC2)c(-c2ccccc2F)n1	-10.2%
COc1cccc(N2CCN(c3ncnc4c3nc3n4CCCCC3)CC2)c1	9.8%
O=C(CCC1CCCCC1)Nc1ccccc1O	-6.0%
CC1=NN(C(C#N)c2ccc(F)cc2)C(c2ccccc2)C1 (stereo not drawn)	-9.2%
COc1ccc(CCc2ccc3ccccc3n2)cc1	3.3%
COc1ccc(NS(=O)(=O)c2cccc(C(=O)N/N=C(\C)c3ccc(-n4ccnc4)cc3)c2)cc1	-0.1%
O=C(Nc1ccc(Br)cc1)NC1CCCCCCC1	-11.5%
O=C(COC(=O)c1ccc2ccccc2n1)Nc1ccccc1Br	48.8%[activator]
COc1cc(NC(=O)c2oc3c(c2C)-c2nn(Cc4cccc(Cl)c4)cc2CC3)cc(OC)c1	0.0%

Structure	VDR inhibitor
COc1ccc2[nH]c3c(c2c1)CCN1C(=O)N([C@@H](C)C(=O)NC2CCCC2)C(=O)[C@]31C	13.8%
O=C(NC1CCCCC1)c1n[nH]c2c1CCCCC2	-4.1%
O=c1c2cc(NC(=S)NCc3ccccn3)ccc2nc2n1CCCCC2	-10.1%
COC(=O)CC1C(=O)NCCN1C(=O)c1cc([N+](=O)[O-])ccc1Cl (stereo not drawn)	-26.1%
CCN(CC)c1ccc(NC(=O)CCS(=O)(=O)c2ccc3c(c2)oc(=O)n3C)c(C)c1	1.7%
Cc1cc(=O)[nH]c2nnc(SCc3ccc(Cl)cc3Cl)n12	2.3%
CC(=O)Nc1ccc(NC(=O)COC(=O)COc2ccc3ccccc3c2)cc1	5.3%
Cc1ccc2[nH]c3c(c2c1)CC/C(=C/c1ccccc1)C3=O	-6.9%
CN(Cc1ccccc1)C(=O)COC(=O)c1cc(-c2ccc(Cl)s2)nc2ccccc12	0.4%
CCOc1ccccc1NC(=S)N1CCN(c2ccccc2)CC1	-4.2%
O=C(Nc1ccc(F)cc1)c1ccccc1	-12.3%
O=C(NC1CCCC1)c1nc2c(nnn2Cc2cccc(Cl)c2)c(=O)[nH]1	9.1%
COc1ccc2[nH]c(C)c(CCN(Cc3cccs3)C(=S)Nc3ccccc3OC)c2c1	-5.3%
O=C1NC(=O)/C(=C\c2ccc(Br)o2)S1	-15.3%
C(=N\c1nc2ccccc2n1CCN1CCCCC1)/c1ccc2c(c1)OCO2	12.3%

Structure	VDR inhibitor
COc1cccc(N2CCN(C(=O)Cn3ncc4c5ccccc5n(C)c4c3=O)CC2)c1	4.6%
COc1ccc(-c2cc(-c3ccc(OC)cc3)[nH]n2)cc1	-5.2%
CCOC(=O)c1cc2c(=O)n3ccccc3nc2n(CCCOC)c1=NC(=O)c1ccncc1	-1.4%
COc1cccc(C(=O)NNC(=O)C(=O)Nc2ccc(C)c(Cl)c2)c1	-6.6%
CC(Nc1oc(-c2ccc(COc3ccccc3)o2)nc1C#N)c1ccccc1 (stereo not drawn)	-7.9%
OCC(CO)(CO)NC(=S)Nc1cc(Cl)cc(Cl)c1	-5.7%
CC(C)(C)c1ccc(C(=O)Nc2ccc3nc(SCC(=O)N4CCCC4)sc3c2)cc1	13.7%
O=C(Nc1ccc(F)cc1)Nc1nnc(COc2ccccc2F)s1	10.8%
C/C(=N\Nc1ccc([N+](=O)[O-])cc1)c1ccc2c(c1)OCO2	-4.9%
CCCCNC(=O)CNC(=S)N(Cc1cc(OC)c(OC)c(OC)c1)C1CCCC1	-3.0%
COc1ccc(C(=O)Nc2ccc(-c3nnc4n3CCCCC4)cc2)cc1	-6.6%
COc1ccc(OC)c(C(=O)NC(CC(N)=O)c2ccc(NCc3ccccn3)c([N+](=O)[O-])c2)c1 (stereo not drawn)	-4.2%
Nc1nc(CSC(=S)N2CCCCC2)nc(Nc2ccccc2)n1	11.3%
c1ccc(OCCOCCN2CCN(C(c3ccccc3)c3ccccc3)CC2)cc1	-9.2%
CC(C)(C)NC(=O)CN(C(=O)Cn1nnc(-c2ccc(Cl)cc2)n1)C1CCN(Cc2ccccc2)CC1	-10.5%

Structure	VDR inhibitor
CCCSC1=NC2(CCN(C(=O)NC3CCCCC3)CC2)N=C1c1ccc(OC)cc1	-1.0%
c1ccc(-c2csc(-c3ccncc3)n2)cc1	-7.0%
O=C(c1cc2ccccc2o1)N1CCN(S(=O)(=O)c2ccc(F)c(F)c2F)CC1	-9.8%
COC(=O)c1ccn(-c2nc(-c3ccc(Cl)cc3)cc(C(F)(F)F)n2)n1	-10.5%
O=C(CSc1nnc2n1CCCN2)c1ccc(Cl)cc1	5.6%
CCN(C(=O)Cc1ccc(NC2=NC3CS(=O)(=O)CC3S2)cc1)c1ccccc1 (stereo not drawn)	2.3%
C=CCNC(NC(=O)c1ccccc1)(C(=O)OCC)C(F)(F)F (stereo not drawn)	4.8%
C=C(C)c1ccc(C(C)(C)NC(=O)NCc2ccco2)cc1	16.8%
CC(=O)c1sc(NC(=O)COc2ccc(Cl)cc2C)nc1C	-1.8%
CCCCc1ccc(NC(=O)c2ccc3c(c2)CCN3S(=O)(=O)c2ccccc2)cc1	0.2%
CC(SCc1nc2sc3c(c2c(=O)[nH]1)CCCC3)C(=O)Nc1ccccn1 (stereo not drawn)	-11.4%
O=C(Nc1cccc2ccccc12)N1CCN(c2ncccn2)CC1	3.5%
O=C(NCCCN1CCCCCC1)C1CC(=O)N(CCc2ccccc2)C1 (stereo not drawn)	12.4%
COc1cccc(C2=NOC(C(=O)Nc3cccc(C(C)=O)c3)C2)c1OC (stereo not drawn)	-9.4%
Cc1ccccc1S(=O)Cc1ccc(C(=O)N2CCN(C(=O)c3ccco3)CC2)o1 (stereo not drawn)	-16.6%
CCn1c(CNC(=O)c2ccco2)nnc1SCC(=O)c1ccccc1	-5.9%
COc1ccc(C(=O)Nc2ccc(S(=O)(=O)Nc3onc(C)c3C)cc2)cc1OC	-9.6%
CC(=O)Nc1ccc(NC(=O)COc2ccc3c(c2)CCC3)cc1	5.9%

# From PubChem
